# Screening results: PubChem BioAssay, Vanderbilt University
# GIRK2 act – GIRK2 channel activation. P48051. HEK293-GIRK2 thallium flux, Thallos fluorescence. calls only for hits at 25 µM. hit rate 0.05% among 63,000. AID 1259325;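 active means among the strongest 0.2% of first-round signals and kept after retests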;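 further: first round at about 10 µM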
# Target sequence (P48051 whole entry, looked up): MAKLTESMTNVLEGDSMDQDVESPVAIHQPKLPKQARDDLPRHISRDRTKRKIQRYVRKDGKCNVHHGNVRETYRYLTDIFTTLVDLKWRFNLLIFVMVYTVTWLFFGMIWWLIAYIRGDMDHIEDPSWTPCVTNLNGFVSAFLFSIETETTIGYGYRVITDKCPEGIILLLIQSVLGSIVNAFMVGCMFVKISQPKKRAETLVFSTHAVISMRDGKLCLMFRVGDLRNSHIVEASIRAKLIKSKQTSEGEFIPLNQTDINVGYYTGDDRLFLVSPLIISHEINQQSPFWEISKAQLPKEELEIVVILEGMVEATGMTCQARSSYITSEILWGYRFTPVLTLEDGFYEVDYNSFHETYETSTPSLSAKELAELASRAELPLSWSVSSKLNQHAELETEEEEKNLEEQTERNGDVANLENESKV
# Calls only; i = inactive.
SMILES,GIRK2 act
O=C(OC1CN(c2nc3ccc(F)cc3s2)C1)c1ccc(Br)o1,i
O=C(NCc1ccco1)c1ccc(Cn2c(=S)[nH]c3cc4c(cc3c2=O)OCO4)cc1,i
Cc1cc(NC(=O)C2(c3ccc(Cl)cc3)CCCC2)ccc1N1CCCC1=O,i
CN1CCc2c(sc(NC(=O)c3ccc4ccccc4c3)c2-c2nc3ccccc3s2)C1,i
O=C(c1ccccc1)N(CCN1CCOCC1)c1nc2c(F)cc(F)cc2s1,i
CCc1ccc(S(=O)(=O)c2c(C(=O)N3CCC(C)CC3)cnc3ccc(F)cc23)cc1,i
Cc1noc(CNC(=O)CCn2ccc(=O)[nH]c2=O)n1,i
COc1cc(C(=O)NCC2CCCN2S(=O)(=O)c2ccc(C)cc2)cc(OC)c1OC (centres undefined),i
CC1=CC(=C2C(=O)NC(=O)NC2=O)C=C(C)N1CCN1CCOCC1,i
CC(C)(C)c1csc(CN2CCN(CC(=O)NCCc3ccccc3)CC2)n1,i
COc1ccccc1-c1c(N)oc2cc(O)ccc2c1=O,i
CC1=C(C(=O)Nc2ccc(C)c(C)c2)C(c2ccccc2F)NC(=O)N1 (centres undefined),i
CCCC1Oc2ccccc2C(=O)N(CC(=O)c2ccc(OCC)cc2)C1=O (centres undefined),i
COC(=O)c1ccc(NC(=O)C(=O)NCC(c2cccn2C)N2CCCC2)cc1 (centres undefined),i
Cc1cccc(OCc2ccc(C(=O)N(C)Cc3cc(=O)[nH]c4ccccc34)o2)c1,i
CN(C)S(=O)(=O)c1ccc(C(=O)N2CCN(C(=O)C3CC3c3cccs3)CC2)cc1 (centres undefined),i
CCN(C(=O)Cn1c(N2CCOCC2)nc(C)cc1=O)c1ccccc1,i
COc1ccc(OC)c(COCC(O)CN2CCN(c3cc(Cl)ccc3C)CC2)c1 (centres undefined),i
CCOc1ccc(-c2ccc(=O)n(Cc3nc(-c4cccc(Cl)c4)no3)n2)cc1,i
O=C(c1nc2ccccc2s1)N1CCN(Cc2nc3ccccc3[nH]2)CC1,i
CCOc1ccc(-n2ccn3c(CC(C)CC(=O)Nc4ccc(OC)cc4)nnc3c2=O)cc1 (centres undefined),i
CC(C)(C)OC(=O)NCCc1cccc(N)c1,i
COc1cccc2sc(N(C)CC(=O)NCc3ccccc3OC(F)(F)F)nc12,i
O=C1C2N=NN(Cc3nc(-c4ccc5c(c4)OCO5)no3)C2C(=O)N1c1ccc2c(c1)OCO2 (centres undefined),i
O=C(Nc1ccc2c(c1)C(=O)NCC2)c1nc2ccccc2s1,i
CC1CCCCN1C(=O)c1ccc(S(=O)(=O)N2CCOCC2)cc1 (centres undefined),i
COCCc1noc(-c2ccc(=O)n(CC(=O)Nc3c(C)cc(C)cc3C)c2)n1,i
Cc1cccc(NC(=O)C2CCCN(c3ncnc4c3oc3ccccc34)C2)c1 (centres undefined),i
Cn1c(=O)c2c(nc3n2CC(c2ccc(F)cc2)=NN3CC(N)=O)n(C)c1=O,i
Cc1ccc(-c2ccc(N3CCN(S(C)(=O)=O)CC3)nn2)c(C)c1,i
O=C(CSc1nc2ccccc2s1)Nc1ccc2cn[nH]c2c1,i
O=S(=O)(Cc1cccc(F)c1)N1CCCC(c2nnc(C(F)(F)F)o2)C1 (centres undefined),i
CCOc1ccc(CC(=O)NC2(c3nc(C4CC4)no3)CCCCC2)cc1OCC,i
O=C(Nc1nccs1)C(=O)N1CCN(Cc2ccccc2)CC1,i
CCCS(=O)(=O)N1CCCc2ccc(NS(=O)(=O)c3ccccc3)cc21,i
CCCCOc1ccc(C(=O)NCC#CCOc2ccccc2C(N)=O)cc1,i
CCCc1cc2c(=O)c(-c3ccc4c(c3)OCCCO4)c(C)oc2cc1OCC(N)=O,i
Cc1noc(NS(=O)(=O)c2ccc(N)cc2)c1C,i
COc1nn(C)cc1C(=O)N1CCC2(CC1)OCCCO2,i
CC(O)(CNC(=O)NC12CC3CC(CC(C3)C1)C2)c1ccccc1 (centres undefined),i
Cc1c(C)n2c3c(=O)[nH]c(=O)n(C)c3nc2n1-c1cc(Cl)ccc1O,i
COc1cccc(C(=O)Nc2ccc3c(c2)CCCN3C(=O)c2ccccc2)c1,i
O=C(c1cc(Cl)sc1Cl)N1CCC(Oc2nc3ccccc3s2)CC1,i
Cc1ccc(C)c(S(=O)(=O)Nc2ccc(C(=O)Nc3ccc4c(c3)OCO4)cc2)c1,i
CCOc1ccccc1NC(=O)N1CCN(c2cc(-n3cccc3)ncn2)CC1,i
O=C(NCc1ccccc1Cl)C1CCN(c2ccc(-c3ccco3)nn2)CC1,i
Cc1cc(C)c(S(=O)(=O)N2CCN(C(=O)CCn3nc(C)c(Br)c3C)CC2)c(C)c1,i
Cc1cc(C(=O)Nc2nc(C(=O)NCc3ccccc3OC(F)(F)F)co2)no1,i
O=C(Cn1cc(-c2nc(-c3ccc(Cl)cc3)no2)ccc1=O)Nc1ccc2c(c1)OCCO2,i
Cn1nc(-c2ccc(F)cc2)cc1C(=O)N1CCC2(CC1)OCCS2,i
Cc1cn2c(CCC(=O)NC3CCN(Cc4ccccc4)CC3)csc2n1,i
COCCn1c(-c2nc(C(=O)Nc3nccs3)cs2)cc2ccccc21,i
O=C(Cn1cncn1)Nc1ccccc1-c1ccc(=O)[nH]n1,i
CCCCCC(=O)CC[C@@H]1[C@@H](C/C=C\CCCC(=O)OC(C)C)[C@@H](O)C[C@H]1O,i
COc1cc(NC(=O)c2cnn(-c3ccccc3)n2)ccc1N1CCCC1=O,i
Cn1cc(C(=O)NCc2ccccc2)c(S(=O)(=O)N2CCN(c3ccc(Cl)cc3)CC2)n1,i
O=C(Cn1cc(S(=O)(=O)N2CCCC2)ccc1=O)N1CCN(c2ccc(F)cc2)CC1,i
CCOC(=O)C1=C(C)NC(=O)NC1c1ccc(OC)cc1 (centres undefined),i
O=C(c1ccc(S(=O)(=O)NCCc2ccccc2)o1)N1CCOCC1,i
COc1ccc(-c2nc(CN(c3ccccc3OC)S(=O)(=O)c3ccc(OC)cc3)c(C)o2)cc1,i

# The listing continues.
SMILES,GIRK2 act
Cc1cc(C)c(/C=C2\C(=O)Nc3ccccc32)[nH]1,i
Cn1nc(N2CCC(C(=O)Nc3cccc(-c4ccn[nH]4)c3)CC2)ccc1=O,i
O=C(Cn1nc(C(=O)N2CCOCC2)cc1-c1cccs1)NCc1cccnc1,i
CCOc1ccc(-c2noc(-c3cc4cc(Br)cc(OC)c4oc3=O)n2)cc1,i
CCCS(=O)(=O)c1ccc(NCCc2c[nH]c3ccccc23)nn1,i
COc1ccc(-c2csc3c(=O)n(CC(=O)Nc4ccc(OC)c(OC)c4)cnc23)cc1,i
Cc1cn2c3c(=O)n(Cc4cccc5ccccc45)c(=O)n(C)c3nc2n1CCCl,i
Cc1cc(C(=O)N2CC(C(=O)N3CCC4(CC3)OCCO4)C2)no1,i
CC(=O)c1cccc(NC(=O)c2c[nH]c3ccc(F)cc3c2=O)c1,i
Cc1ccc(NC(=O)Cn2c(C)cc(C)c(-c3nc(-c4ccccc4)no3)c2=O)c(Br)c1,i
CC(C)(C)N(C(=O)c1cc2ccccc2o1)C(=O)N1CCCCC1,i
COCCn1c(-c2cccc([N+](=O)[O-])c2)nc2c(c(=O)c3ccccc3n2C)c1=O,i
COc1ccc(N2C(=O)/C(=C/c3cc(OC)c(OC)c(OC)c3)SC2=S)cc1,i
COc1cc(NC(=O)N(CC(F)(F)F)C2CCOCC2)cc(OC)c1,i
Cc1cc(CCNC(=O)c2cc(Br)ccc2Cl)on1,i
CC(=O)[C@@]1(O)CC[C@H]2[C@@H]3C[C@H](C)C4=CC(=O)CC[C@]4(C)[C@H]3CC[C@@]21C,i
COC(=O)N1CCN(CCNC(=O)C2(c3ccc(Cl)cc3)CCCC2)CC1,i
O=C(C(c1ccccc1)c1ccccc1)N1CCC(Cn2ccnc2-c2ccccc2)CC1,i
CCOc1ccccc1NC(=O)CSc1nc2ncccc2c(=O)n1CC1CCCO1 (centres undefined),i
COc1ccc(Cl)cc1C(=O)NCc1cnn2ccccc12,i
COc1cccc(C(=O)OC2CN(c3nc4ccc(F)cc4s3)C2)c1OC,i
CS(=O)(=O)N1CCC(C(=O)N2CCN(c3nc4ccc(OC(F)(F)F)cc4s3)CC2)CC1,i
O=C(COc1ccccc1F)NCCN1CCN(c2ccccc2F)CC1,i
Cc1cc(C)cc(N2CCn3c2nc2c3c(=O)n(CC(=O)O)c(=O)n2C)c1,i
COc1ccccc1N1CCN(C(=O)C2(c3cccs3)CCCC2)CC1,i
Cc1nnc(NC(=O)c2cc(=O)c(OCc3ccc(F)cc3)cn2C)s1,i
Cc1cc(=O)n2c(-c3cccc(NC(=O)c4cccc5ccccc45)c3)csc2n1,i
CCN(C(=O)Cn1cc(S(=O)(=O)N2CCCCC2)ccc1=O)c1ccccc1,i
COc1ccc(C)cc1Nc1nc(C(=O)Nc2nc(CC(N)=O)cs2)cs1,i
COc1cccc(NC(=O)Cn2c(C)cc(C)c(S(=O)(=O)c3ccc(C)c(C)c3)c2=O)c1,i
O=C(C1CC1)N1CCC(Cn2ccnc2)CC1,i
Nc1nc(NCc2ccc(F)cc2)ncc1[N+](=O)[O-],i
COc1cc(C2c3cccn3CCN2S(=O)(=O)c2ccc(F)cc2)cc(OC)c1OC (centres undefined),i
O=C(NCc1ccccc1F)c1ccc(Oc2nccnc2N2CCOCC2)cc1,i
Fc1ccc(Nc2cc(-c3ccccc3)ncn2)c(F)c1,i
O=C(Nc1ccccc1)OC1CCCC(NC(=O)C2COc3ccccc3O2)C1 (centres undefined),i

# Entries above that contain an NH in an aromatic ring (11):
SMILES,GIRK2 act
O=C(NCc1ccco1)c1ccc(Cn2c(=S)[nH]c3cc4c(cc3c2=O)OCO4)cc1,i
Cc1noc(CNC(=O)CCn2ccc(=O)[nH]c2=O)n1,i
Cc1cccc(OCc2ccc(C(=O)N(C)Cc3cc(=O)[nH]c4ccccc34)o2)c1,i
O=C(c1nc2ccccc2s1)N1CCN(Cc2nc3ccccc3[nH]2)CC1,i
O=C(CSc1nc2ccccc2s1)Nc1ccc2cn[nH]c2c1,i
Cc1c(C)n2c3c(=O)[nH]c(=O)n(C)c3nc2n1-c1cc(Cl)ccc1O,i
O=C(Cn1cncn1)Nc1ccccc1-c1ccc(=O)[nH]n1,i
Cc1cc(C)c(/C=C2\C(=O)Nc3ccccc32)[nH]1,i
Cn1nc(N2CCC(C(=O)Nc3cccc(-c4ccn[nH]4)c3)CC2)ccc1=O,i
CCCS(=O)(=O)c1ccc(NCCc2c[nH]c3ccccc23)nn1,i
CC(=O)c1cccc(NC(=O)c2c[nH]c3ccc(F)cc3c2=O)c1,i

# Further entries follow:
SMILES,GIRK2 act
COc1ccc(Cc2nnc(SCC(=O)Nc3ccc(OC)cc3)n2N)cc1,i
Cc1ccc(NC(=O)c2cccn(C)c2=O)cc1N1CCCC1=O,i
COc1cc(S(=O)(=O)NCc2ccccn2)ccc1Br,i
Cc1ccc(C(=O)NCc2n[nH]c(=O)c3ccccc23)cc1[N+](=O)[O-],i
COc1ccc(NC(=O)Cn2nc3ccc(-c4ccccc4)nn3c2=O)cc1,i
O=C(NCC1(O)CCCC1)c1cc2ccccc2o1,i
COc1cccc(NC(=O)Cn2c(C)cc(C)c(-c3nc(-c4ccc5c(c4)OCO5)no3)c2=O)c1,i
CCCNC(=O)COc1coc(CN2CCN(c3ccccc3F)CC2)cc1=O,i
Cc1c(C(=O)NCCOc2cccc3cccnc23)cnn1-c1ccccc1,i
Cc1nc(C)c(C(=O)N2CCN(c3cc(Nc4ccccn4)ncn3)CC2)s1,i
CCOc1ccccc1NC(=O)C1COc2ccccc2C1 (centres undefined),i
COc1ccc(S(=O)(=O)NCCn2nc(-c3ccccc3)ccc2=O)cc1F,i
O=C1CN(C(=O)c2ccc3nsnc3c2)CCN1,i
COc1cccc2sc(OC3CN(S(=O)(=O)c4c(C)noc4C)C3)nc12,i
COc1ccc2c(c1)c(CC(=O)Nc1cc(OC)c(OC)c(OC)c1)c(C)n2C(=O)c1ccc(Cl)cc1,i
Nc1c(-c2nc3ccccc3s2)nnn1-c1ccc(F)cc1,i
O=S(=O)(c1ccc2c(c1)OCCO2)N(CCc1cccs1)Cc1cccnc1,i
O=C(Cn1c(=O)oc2ccccc21)Nc1nnc(-c2ccccc2)o1,i
Cc1[nH]c(=O)n(C)c(=O)c1CCc1nnc(SCC(=O)Nc2cccc(Cl)c2)o1,i
O=C(NCC1CCN(C(=O)c2ccoc2)CC1)C(=O)Nc1ccon1,i
CCOc1ccc(-c2nc(Cn3nnc(C(=O)NCc4ccc(Cl)cc4)c3N)c(C)o2)cc1OC,i
CS(=O)(=O)N1CCN(C(=O)C2CCCN(Cc3nc(-c4cccs4)no3)C2)CC1 (centres undefined),i
O=C(Cn1cccc(-c2nc(-c3ccccc3)no2)c1=O)Nc1ccc2c(c1)OCO2,i
COc1ccc(N2C(=O)CSC23C(=O)N(CC(=O)NCc2ccccc2)c2ccccc23)cc1 (centres undefined),i
Cc1noc(CNC(=O)C2CCN(C(=O)NCc3ccc(F)cc3)CC2)n1,i
Cc1cc(NC(=O)C(=O)NCCN2CCN(c3ccccc3F)CC2)c2ccccc2n1,i
COc1ccc(S(=O)(=O)N2CCN(c3cc(Cl)ccc3Cl)CC2)cc1,i
COc1ccc(C)cc1S(=O)(=O)Nc1ccc2c(c1)CCCN2S(C)(=O)=O,i
CC(=O)Nc1ccc(S(=O)(=O)NCc2nc(C)no2)cc1,i
O=C(Nc1cccc2nsnc12)c1ccc(-n2ccnc2)nn1,i
COc1ccc(-c2ccc(C(=O)Nc3cccc([N+](=O)[O-])c3)o2)c([N+](=O)[O-])c1,i
C#CCCNC(=O)Cc1ccc(SC(C)C)cc1,i
O=C(NCCc1ccccc1)N1CCOC2(CCOCC2)C1,i
Cc1cc(C)c(S(=O)(=O)Nc2nc3ccccc3[nH]2)c(C)c1,i

# Exported field by field: entries from further up
SMILES: Nc1c(-c2nc3ccccc3s2)nnn1-c1ccc(F)cc1
  GIRK2 act: i

SMILES: O=S(=O)(c1ccc2c(c1)OCCO2)N(CCc1cccs1)Cc1cccnc1
  GIRK2 act: i

SMILES: O=C(Cn1c(=O)oc2ccccc21)Nc1nnc(-c2ccccc2)o1
  GIRK2 act: i

# Not all compounds are listed, so the mix of outcomes need not match the whole.
